# CtBP-E1A inh = blocks the CtBP interaction with E1A. actives 0.49% (n = 340,000). AlphaScreen GST-E1A/His-CtBP binding, 1536-well; stronger effect = lower value; control for the full effect not named in the record. activity change, % (test concentration not listed); in the data active means activity change below about -65%; inconclusive means about -30% to -65%; inactive means above about -30%; further: on the % scale 0 is the no-effect control and ±100 the full control effect; compound concentration not given in the record
#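 Steps: dispense buffer (Tris pH 8.0, NaCl 300 mM, TCEP 1 mM, BSA, Tween 20); add 5X protein mix (GST-E1A, His-CtBP, 125 nM each); pin 23 nL compound; 2 h at 37 °C, dark; add 5X beads (50 ug/mL); 1 h; read.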
# D2 agonist = human D2 receptor agonism in beta-arrestin assay. DiscoveRx PathHunter D2 beta-arrestin, luminescence, 90 min; 100% = 57 uM dopamine signal. activation, % (no concentration beside the values). P14416. actives 0.084% (n = 360,000). AID 624465; in the data active = activation above about 40%; inconclusive = about 15% to 40%; inactive = below about 15%; further: compound concentration not given in the record; the text of the record calls up to 30% inactive
#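 Agonist mode: compounds alone added to overnight-plated D2 PathHunter cells for 90 min at 37 C, with 57 uM final dopamine (EC100) defining full response. Beta-arrestin recruitment detected by chemiluminescent reagent, read after 1 h at ambient temperature.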
# Six1-Eya2 inh = inhibitors of human Six1/Eya2 interaction | AlphaScreen GST-Six1/His-Eya2 binding, biochemical; stronger effect = lower value; control for the full effect not named in the record | activity change, % (test concentration not listed) | AID 651725 | Q15475+O00167 | actives 0.56% (n = 360,000); in the data active = activity change below about -65%; inconclusive = about -30% to -65%; inactive = above about -30%; further: on the % scale 0 is the no-effect control and ±100 the full control effect; compound concentration not given in the record
# Target sequence (O00167 whole entry, looked up): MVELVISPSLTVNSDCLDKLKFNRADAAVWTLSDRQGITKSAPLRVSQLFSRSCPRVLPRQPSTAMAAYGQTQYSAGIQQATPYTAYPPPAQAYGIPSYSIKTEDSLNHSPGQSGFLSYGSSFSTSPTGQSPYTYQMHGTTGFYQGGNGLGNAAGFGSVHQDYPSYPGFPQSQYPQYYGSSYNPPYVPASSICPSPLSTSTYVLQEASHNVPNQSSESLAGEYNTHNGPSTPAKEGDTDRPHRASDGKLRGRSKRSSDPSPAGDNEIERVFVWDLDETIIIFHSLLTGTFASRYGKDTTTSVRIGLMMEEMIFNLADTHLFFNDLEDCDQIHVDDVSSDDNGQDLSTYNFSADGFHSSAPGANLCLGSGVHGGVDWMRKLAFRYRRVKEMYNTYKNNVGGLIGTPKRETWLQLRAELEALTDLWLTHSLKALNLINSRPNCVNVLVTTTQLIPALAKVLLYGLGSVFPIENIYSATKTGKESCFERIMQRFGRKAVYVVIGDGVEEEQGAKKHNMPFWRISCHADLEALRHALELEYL
# Target sequence (Q15475 whole entry, looked up): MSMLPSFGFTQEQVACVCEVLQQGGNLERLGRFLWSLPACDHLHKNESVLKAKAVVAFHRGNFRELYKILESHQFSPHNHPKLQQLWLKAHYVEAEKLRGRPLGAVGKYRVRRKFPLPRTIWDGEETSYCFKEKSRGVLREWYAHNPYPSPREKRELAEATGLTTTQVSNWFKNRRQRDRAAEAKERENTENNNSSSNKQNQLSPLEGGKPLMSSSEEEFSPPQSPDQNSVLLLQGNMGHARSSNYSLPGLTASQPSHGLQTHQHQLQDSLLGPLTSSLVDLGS
#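 Compounds are tested against tagged Six1 and Eya2 proteins bridged by glutathione donor and nickel acceptor beads; after a one-hour incubation at 37 °C without light, AlphaScreen emission is recorded.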
# gsp antagonist = antagonists of gsp mutant (McCune-Albright syndrome); gsp-mutant cells, cAMP HTRF, 30 min; control for the full effect not named in the record; actives 0.4% (n = 340,000); Potency, µM (titrated, usually from 76.9 µM), for the others: at the top dose activity change, negative = inhibition, hits mostly inhibitors; AID 624288; active = falling curve of any shape with a large fitted effect; inconclusive = falling curve, mostly with a smaller effect; inactive = flat or rising curve; cell line not stated here;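 further: intracellular cAMP measured with PDE inhibitor Ro 20-1724 present during compound exposure; potency means the concentration at half of the fitted maximal effect; on the % scale 0 is the no-effect control and ±100 the full control effect; nearly all actives have a fitted effect of over 65% in size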
#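 HTRF cAMP measurement after 30 min RT detection following 30 min, 37C compound treatment alongside […] (added as 300 uM solution) in G418-selected cells seeded at 2000/well and grown 16–24 h.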
# gsp agonist = gsp mutant agonism | Potency, µM (titrated, usually from 76.9 µM), inactives show at the top dose activation (cAMP increase), usual class: activators | AID 624287 | gsp mutant cells, cAMP HTRF, 30 min; control for the full effect not named in the record | actives 0.13% (n = 340,000); active = well fitted activation curve with a large enough effect; inconclusive = small, poorly fitted or top-dose-only effect, or another doubt; inactive = no such curve, though single readings can be large or run the other way; cell line not stated here;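 further: phosphodiesterase inhibitor Ro 20-1724 added with compounds to block cAMP breakdown; potency means the concentration at half of the fitted maximal effect; nearly all actives have a fitted effect of over 60% in size; about a fifth of the inactives were tested at one dose only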
#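 Cells stably selected in G418 were plated at 2000/well, grown 16-24 hr, then given compounds in DMSO with the PDE inhibitor […] (300 uM solution added) for 30 min at 37C; cAMP was read by HTRF.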
# D2 potentiator = human D2 receptor positive allosteric modulation; DiscoveRx D2 beta-arrestin cells, luminescence, 90 min; 100% = 57 uM dopamine signal; potentiation, % (no concentration beside the values); actives 0.23% (n = 360,000); AID 624464; active = potentiation of 50% or more; inconclusive = 30% to 50%; inactive = 30% or less;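 further: compound concentration not given in the record; tested on top of an EC20 dose of dopamine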
#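 D2 cells co-treated with compound plus 50 nM dopamine (EC20) for 90 min at 37 deg C to detect potentiation. Beta-arrestin recruitment was read as enzyme-fragment luminescence after 1 h at ambient temperature. Full response was set by 57 uM dopamine.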
# * marks the source's active call; other numbers are inactive results; ? = inconclusive; . = not tested or not shown; [ ] = another dose, or the depositor's remark.
SMILES,CtBP-E1A inh,D2 agonist,Six1-Eya2 inh,gsp antagonist,gsp agonist,D2 potentiator
Cc1ccc(NS(=O)(=O)Cc2ccccc2)cc1Cl,-20,6.0,19,5%,-2%[15.4 µM],1
Cc1ccc(C(OC(=O)c2ccco2)C(=O)NC(C)(C)C)cc1 (stereo not given),-3,1.5,-6,4%,3%[15.4 µM],-4
Cc1ccc(C(=O)N2CC(C)CC(C)C2)cc1S(=O)(=O)N1CCCCC1 (stereo not given),.,-1.1,3,-12%,10%,-1
COc1cc(/C=C(\C#N)c2ccccn2)ccc1OCC(=O)Nc1ccc(Br)cc1,-1,-1.8,1,16%,26%,0
COC(=O)C1(C)NCCc2c1[nH]c1ccccc21 (stereo not given),-20,1.7,0,-5%,-27%,-4
CCCCCC(=O)N1C[C@H](O)[C@@H](n2cc(COC(=O)c3ccccc3)nn2)C[C@@H]1c1ccccc1,5,-1.3,-5,.,-57%[inhibitor],0
CCCn1nnnc1SCC(=O)Nc1sc(C)c(C)c1C#N,-5,1.3,-1,-5%,34%[15.4 µM],2
CCOC(=O)N1CCC(N(CCN(C)C)C(=S)Nc2ccccc2Cl)CC1,9,-1.3,2,2%,?,-2
Cc1cc(C)cc(-n2c(C)cc(/C=N/NC(=O)CN(c3c(C)cccc3C)S(C)(=O)=O)c2C)c1,-19,-2.8,-12,7%[15.4 µM],27%,-11
CC(NC(=O)COc1cccnc1[N+](=O)[O-])c1ccc(Cl)cc1 (stereo not given),3,2.3,-8,4%,-20%,-3
O=C(NC(=S)Nc1ccc(S(=O)(=O)N2CCCCCC2)cc1)c1cccs1,-4,0.4,0,-23%,-1%,-3
CS(=O)(=O)c1ccc2nc(NC(=O)C3C4C=CC(C4)C3C(=O)O)sc2c1 (stereo not given),-2,-2.3,4,-2%,0%,-1
O=C(Cc1ccc(Cl)cc1)NC(=S)Nc1ccccc1O,.,-8.9,-1,1%,?,5
CCCCn1c(=O)[nH]c(=O)c2c1nc(-c1ccc(-c3ccc(F)cc3)o1)n2C,2,0.0,4,-3%,9%[15.4 µM],-5
CCN(CC)C(=O)CN(Cc1ccccc1)S(=O)(=O)c1ccc(F)cc1,7,0.3,5,-3%,0%,-20
Cc1noc(C)c1C(=O)N1CCC1(C)C(=O)NS(=O)(=O)c1cccs1 (stereo not given),1,-2.8,8,.,.,-7
COc1ccc(C(=O)C2CCCN(C(=O)c3noc4c3CCCC4)C2)cc1F (stereo not given),0,0.8,-1,-20%,11%,5
Cc1ccccc1S(=O)(=O)N(C)C[C@H]1OCc2cnnn2CCCC(=O)N([C@H](C)CO)C[C@H]1C,-3,-5.0,2,.,-30%[inhibitor],-2
O=C(NCC1COc2ccccc2O1)c1ccc(-n2cncn2)c([N+](=O)[O-])c1 (stereo not given),-11,-0.1,-1,8%,0%,21
COC(=O)C1C(C(C)C)N(c2ccccc2)OC1(C)O (stereo not given),8,-0.9,0,4%,-71%[inhibitor],-22
Cc1ccc(S(=O)(=O)N2CCCc3cc(NC(=O)c4c(F)cccc4F)ccc32)cc1,-18,8.5,-3,-3%,?,-18
Cc1ccnc(NS(=O)(=O)c2ccc(NC(=O)c3ccc(N4C(=O)CCC4=O)cc3)cc2)n1,10,0.0,-5,3%,23%,-8
COc1cccc2cc(CC(=O)c3ccc(C)cc3C)c(=O)oc12,0,-6.1,-3,?,-17%,14
N#Cc1nc(COc2ccccc2Cl)oc1N1CCCC1,-1,-5.0,-23,-7%,-15%[15.4 µM],1
CS(=O)(=O)N(CC(=O)N1CCCCCC1)Cc1ccc(Cl)cc1,3,0.4,2,9%,-3%,-5

# Structures shown so far with an aryl methoxy group:
SMILES,CtBP-E1A inh,D2 agonist,Six1-Eya2 inh,gsp antagonist,gsp agonist,D2 potentiator
COc1cc(/C=C(\C#N)c2ccccn2)ccc1OCC(=O)Nc1ccc(Br)cc1,-1,-1.8,1,16%,26%,0
COc1ccc(C(=O)C2CCCN(C(=O)c3noc4c3CCCC4)C2)cc1F (stereo not given),0,0.8,-1,-20%,11%,5
COc1cccc2cc(CC(=O)c3ccc(C)cc3C)c(=O)oc12,0,-6.1,-3,?,-17%,14

# The listing picks up with the 2 entries that preceded the break.
SMILES,CtBP-E1A inh,D2 agonist,Six1-Eya2 inh,gsp antagonist,gsp agonist,D2 potentiator
N#Cc1nc(COc2ccccc2Cl)oc1N1CCCC1,-1,-5.0,-23,-7%,-15%[15.4 µM],1
CS(=O)(=O)N(CC(=O)N1CCCCCC1)Cc1ccc(Cl)cc1,3,0.4,2,9%,-3%,-5
CC1CCC(N(C(=O)c2csnn2)C(C(=O)NC(C)(C)C)c2cccnc2)CC1 (stereo not given),2,-1.0,1,8%,8%,-11
CCOC(=O)C1CCN(C(=O)COc2ccc(S(=O)(=O)NC(C)C)cc2)CC1,7,-1.9,2,-1%,?,0
Cc1c(C(=O)NCC2COc3ccccc3O2)oc2ccc(S(=O)(=O)N(C)C3CCCCC3)cc12 (stereo not given),-18,-0.2,-13,-6%,-19%,6
COc1ccccc1Cn1nnc2c(=O)[nH]c(C3CCN(C(=O)c4ccc(C)cc4)CC3)nc21,0,-4.7,-5,-1%,-26%,-1
Cc1cc(C)cc(OCC(=O)NNC(=O)c2cc(C)[nH]n2)c1,0,-3.5,-7,18%,17%,-20
O=S(=O)(Nc1cccc(-c2ccc3nncn3n2)c1)c1ccccc1F,-24,-1.1,-8,-3%,8%[15.4 µM],9
CC(C)N=C(N)N=C(N)Nc1ccc(Cl)cc1,-4,2.7,1,8%,.,-17
CCC(C)(C)NC(=O)CN(C(=O)C(=O)Nc1ccc2c(c1)OCCO2)N1CCOCC1,-15,-2.4,8,6%,-46%[inhibitor],-2
COC(=O)Cn1nnc2c(cnn2-c2ccccc2)c1=O,7,2.8,4,0%,0%[15.4 µM],0
COc1ccc(NC(=O)CSc2nnc(Cc3cccn3C)n2-c2ccc(C)cc2)cc1OC,-29,5.7,-19,?,-19%,1
O=C(CCN1CCOCC1)NCc1ccccc1,-6,-4.4,-6,3%,-52%[inhibitor],-14
Cc1ccc(SCCC(=O)Nc2ccc(Br)c(C)c2)cc1,-1,-4.6,33,?,-55%[inhibitor],10
Cc1nc2sc(C(=O)OCC(=O)N3c4ccccc4CC3C)c(C)c2c(=O)[nH]1 (stereo not given),0,-0.6,-6,5%,14%[15.4 µM],-1
Cc1onc(-c2ccccc2Cl)c1C(=O)OCC(=O)N1CCC(C)CC1,.,3.3,-1,-10%,-4%,-1
O=C(Nc1ccc(NC(=O)C2CCCCC2)cn1)c1ccco1,-6,-3.2,-2,0%,-33%,11
COc1ccc(CC(=O)NCc2nnc(SCC(=O)Nc3ccccc3)n2C)cc1,6,-2.2,3,6%,-9%,1
Cc1cccn2c(=O)c3cc(C(=O)N4COCC4(C)C)n(C)c3nc12,-4,-1.8,-9,6%,-8%,-4
CCN(C1CCS(=O)(=O)C1)S(=O)(=O)c1ccc(OC)c(OC)c1 (stereo not given),4,-0.8,3,-3%,?,-4
Cc1ccccc1CN1CCN(C(=O)[C@H]2O[C@@H](n3cnc4c(N)ncnc43)[C@H](O)[C@@H]2O)CC1,-6,-6.1,5,.,.,-7
O=C(COC(=O)c1ccc(Cl)cc1[N+](=O)[O-])NC(=O)c1ccccc1,6,1.4,0,-8%,?,1
CCOc1ccc(C(=O)NCC(=O)N2CCc3ccccc3C2)cc1OCC,4,4.7,0,0%,-11%,-5
COc1ccc(/C=N/NC(=O)OC(C)(C)C)cc1OC,9,0.1,0,-14%,5%[15.4 µM],-4
CCOc1ccc(S(=O)(=O)NCCC(=O)N2CC(C)CC(C)C2)cc1 (stereo not given),-6,1.7,7,-5%,12%[15.4 µM],2
CCOc1ccccc1CN1CCN(Cc2cccc3nonc23)CC1CCO (stereo not given),-2,0.6,13,6%,-23%,-14
CCNS(=O)(=O)c1ccc2c(c1)n(C)c(=O)n2C,3,1.3,5,10%,-8%,-3
SMILES,CtBP-E1A inh,D2 agonist,Six1-Eya2 inh,gsp antagonist,gsp agonist,D2 potentiator
CCS(=O)(=O)N1CCC(c2nc3ccccc3[nH]2)CC1,6,2.9,2,8%,?,-10
CCCc1nc2c3ccccc3ccn2c1Cc1cccc(F)c1,23,-6.0,11,.,.,-13
CN(CC(=O)NC1CC1)S(=O)(=O)c1cc(Cl)ccc1Cl,-4,-4.4,7,9%,?,-12
COc1cc(N2C(=O)c3ccccc3C2=O)c(Cl)cc1C(=O)OCC(=O)N(C)C,13,8.2,1,11%,-3%[15.4 µM],18
CC(C)CC(=O)Nc1cccc(NC(=O)CC(C)C)n1,-4,-2.1,5,-1%,-13%,19
COc1ccc2c(CSc3nc4nc(C)cc(C)n4n3)cc(=O)oc2c1,-2,-2.2,-7,39%[activator],?,-12
CCC(CC)C(=O)Nc1nnc(SCC(=O)NC2CC2)s1,16,-2.0,0,9%,1%[15.4 µM],-6
CC(=O)c1ccc([C@@H]2C[C@]34CN(Cc5cccc(C(F)(F)F)c5)S(=O)(=O)[C@H]3C[C@H]2O4)cc1,.,4.2,0,-1%,-58%[inhibitor],0
c1ccc(COc2ccc(OCCOCCn3cncn3)cc2)cc1,-2,0.0,4,-21%,7%,-7
O=C(c1ccc(Br)o1)N1CCC(Cc2ccccc2)CC1,4,-4.3,-16,-6%,20%,-14
O=S(=O)(c1ccc(NC(=S)NCc2cccnc2)cc1)N1CCCCC1,.,13,-2,-2%,-26%,2
Cc1cccc(NC(=O)CN2C(=O)S/C(=C\c3cccn3-c3cccc(C(=O)O)c3)C2=O)c1,-11,-1.7,-17,?,-26%[15.4 µM],-7
COc1cc(/C=C(\NC(C)=O)C(=O)NC(C)(C)CC(C)(C)C)ccc1OC(C)=O,0,-3.9,20,10%,-6%,-17
O=C(COc1ccc([N+](=O)[O-])cc1)N/N=C/c1cc([N+](=O)[O-])ccc1N1CCOCC1,-1,0.9,-9,-2%,-7%,17
O=C(CN1C(=O)NC2(CCCC2)C1=O)OCCOc1ccc(F)cc1,3,-1.5,-7,13%,-16%[15.4 µM],?
COc1ccnc(Oc2cc(Cl)cc(Cl)c2)c1C#N,11,3.8,-3,-6%,-13%,5
CCOC(=O)/C=C(\C)Nc1cc(C)nn1-c1ccccc1,11,0.8,1,8%,-3%[15.4 µM],20
CCCNC(=O)/C=C/C(=O)O,.,0.9,4,11%,-10%,-6
CC(C)NC(=O)C(=O)c1cn(C)c2ccccc12,0,-1.2,6,6%,11%[15.4 µM],-6
CN(c1ccccc1)S(=O)(=O)c1cccc2ccccc12,22,-3.5,4,-12%,-37%[inhibitor],0
O=C(O)C1CCN(S(=O)(=O)c2cccc3nsnc23)CC1,3,1.3,2,14%,-4%,-3
Cc1ccc(C(=O)NN(CCC(=O)NC(C)(C)C)C2=NS(=O)(=O)c3ccccc32)cc1,-7,-4.0,-5,-2%,-47%[inhibitor],-6
O=C(N/N=C/c1ccco1)c1cc2ccccc2o1,.,4.3,-6,5%,-55%[inhibitor],-9

# Screening results deposited in PubChem by National Center for Advancing Translational Sciences (NCATS).
